Screening results from PubChem BioAssay.
Mtb bLac sens = beta-lactam sensitization of Mtb H37Rv, H37Rv | AID 434955, 2010 | M. tuberculosis H37Rv growth with meropenem, percent inhibition; hits of this screen are not shown here | inhibition, % at 25 µM | 330,000 tested, 0.27% active;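 active = about 74% or more and at least 40 points above the plate without the antibiotic, then above 30% in a dose series; inconclusive = first-round hits that could not be retested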;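 also: growth measured after seven days incubation then overnight dye step; 0% = bacteria only wells and 100% = bacteria with antibiotic; twin plates without the antibiotic show which effects depend on it; some results filed as inactive read as strong as hits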
Active calls of the source: *; ? = inconclusive. Not all compounds are listed, so the mix of outcomes need not match the whole.

SMILES	Mtb bLac sens
CCCCn1nc(C(=O)Nc2ccccc2N2CCCC2)c2ccccc2c1=O	97
CSc1nc2ccc(NS(=O)(=O)c3ccc(CNC(C)=O)cc3)cc2s1	56
Cc1ccc(NC(=O)COC(=O)CNC(=O)C2CCCCC2)cc1S(=O)(=O)N(C)C	-3
CC1CCCCC12NC(=O)N(CC(=O)NCCc1ccc(S(N)(=O)=O)cc1)C2=O (stereo not drawn)	1
O=C(CCS(=O)(=O)c1ccccc1Cl)NC1CCCCCC1	2
Cc1ccc(NC(=O)CN2C(=O)C(=O)N(C3CCCC3)C2=O)cc1Cl	75
O=C(COC(=O)c1cc(Cl)nc(Cl)c1)Nc1ccc(Cl)c(S(=O)(=O)N2CCOCC2)c1	11
CCOC(=O)[C@H]1[C@H]2COc3cc(OC)ccc3[C@@H]2N2C(=O)c3cc(OC)ccc3NC(=O)[C@@]12C	4
Cc1cc(C(=O)N2CCN(c3ccccc3Cl)CC2)c(C)o1	-1
COc1ccccc1C(=O)O[C@H]1[C@H](Cc2ccccc2)NS(=O)(=O)[C@H]2C[C@@H]3C=C[C@]12O3	4
COc1ccccc1OCC(=O)NNC(=O)c1ccc(F)c(S(=O)(=O)N2CCOCC2)c1	7
CCCN(C(=O)COC(=O)CSc1ccc([N+](=O)[O-])cc1)C1CCS(=O)(=O)C1 (stereo not drawn)	-1
Cc1c(C)c(C)c(S(=O)(=O)NCCC(=O)N2CCN(Cc3ccc(C#N)cc3)CC2)c(C)c1C	-7
CCN(CC(=O)Nc1c(F)cccc1F)C(=O)C1COc2ccccc2O1 (stereo not drawn)	5
O=C(COC(=O)c1cnccn1)Nc1ccccc1-c1ccccc1	3
COCCNc1nnc(SCC(=O)NC2CCCCC2)s1	-6
O=C(NN=Cc1ccccc1C(=O)O)c1ccc(NS(=O)(=O)c2cccs2)cc1	5
O=C(CN1C(=O)c2ccccc2S1(=O)=O)NCCc1ccc(F)cc1	0
COc1ccc([C@@H]2CC=C(C(=O)O)CN2S(=O)(=O)c2ccc(C)cc2)cc1OC	-9
N#Cc1ccc(CN2CCN(C(=O)CCNS(=O)(=O)c3ccc(F)c(F)c3)CC2)cc1	-4
C[C@@H]1CN([C@@H](C)CO)C(=O)c2cc(NC(=O)C3CC3)ccc2O[C@@H]1CN(C)Cc1ccc(Cl)c(Cl)c1	30
CC(OC(=O)C1CC(=O)N(Cc2ccco2)C1)C(=O)Nc1ccc(F)cc1Cl (stereo not drawn)	3
COc1ccccc1N1C(=O)CC(c2ccccc2)CC1=O	-18
Cc1cc2c(cn1)C(CCC#N)(CCC#N)c1ccccc1-2	-5
Cn1cnc(C(=O)NCc2ccc(CNC(=O)OC(C)(C)C)cc2)c1C(=O)NCc1ccc(CNC(=O)OC(C)(C)C)cc1	0
CCOC(=O)C1=C(COC(=O)C(CC)c2ccccc2)NC(=O)NC1C (stereo not drawn)	-3
COc1ccc(CCNC(=O)COC(=O)CSc2ccc([N+](=O)[O-])cc2)cc1OC	-8
CC1CCCC(NC(=O)COC(=O)COc2cccc(F)c2)C1C (stereo not drawn)	2
O=C1C(Cc2ccccc2)Nc2ncnc(N3CCCCC3)c2N1Cc1ccc(Br)cc1 (stereo not drawn)	4
Cc1ccccc1CCNC(=O)c1cc(C2CC2)nc2c1cnn2C(C)C	6
Cc1noc(C)c1NC(=O)Nc1ccc2c(c1)CC(=O)N([C@H](C)CO)C[C@@H](C)[C@H](CN(C)CC1CCCCC1)O2	7
CCOc1cc(C(=O)Nc2ccccc2N2CCOCC2)ccc1OCC(=O)N1CCOCC1	-9
COC(=O)C(N)Cc1ccc(Cl)cc1 (stereo not drawn)	0
CCc1nnc(NC(=O)CSc2nc3[nH]c(=O)cc(O)c3s2)s1	-2
CN(CC(=O)Nc1ccccc1Cl)C(=O)COC(=O)/C=C/c1cccs1	0
CC(=O)N/C(=C\c1ccccc1)C(=O)OCC(=O)NC1CCS(=O)(=O)C1 (stereo not drawn)	4
COc1ccc(C(=O)OCC(=O)NC2CCCCCC2)cc1OC	-9
CN(CC(=O)Nc1ccccc1C(=O)NC1CC1)Cc1ccc(Cl)s1	-4
O=C(COC(=O)c1ccc(Cl)nc1)Nc1cccc(S(=O)(=O)N2CCCCC2)c1	-3
Cc1cccc(C)c1NC(=O)CN(C)C(=O)CN1C(=O)NC(C)(C)C1=O	-3
CC1CC1C(=O)OCC(=O)Nc1ccc(S(=O)(=O)N2CCOCC2)cc1 (stereo not drawn)	8
COc1cc(OC)cc(C(=O)NC(C(=O)NNC(=O)c2cc(Cl)ccc2OC)C(C)C)c1 (stereo not drawn)	3
O=C(C[C@@H]1C/C=C\C[C@H](Cc2ccc(F)cc2)C(=O)OC[C@@H](c2ccccc2)NC1=O)NCCO	-8
O=C(COC(=O)C12CC3CC(CC(Br)(C3)C1)C2)NNC(=O)c1ccccc1	1
CC(=O)c1cccc(NC(=O)CCn2c(=O)oc3ccccc32)c1	-6
O=C(NCCCN1CCOCC1)c1cccc(S(=O)(=O)N2CCOCC2)c1	8
CCN(CC)S(=O)(=O)c1cc(NC(=O)C2CC(=O)N(Cc3ccccc3)C2)ccc1Cl (stereo not drawn)	8
Cc1ccc(OCC(=O)O/N=C(\N)c2ccncc2)cc1C	-1
CNc1ccc([N+](=O)[O-])cc1	-6
COc1ccc(C(=O)OC2C[C@H]3CC[C@H](C2)N3C)cc1OC (stereo partly drawn)	-4
CC1CCCC(NC(=O)COC(=O)CCC(=O)c2cccs2)C1C (stereo not drawn)	4
CSCCC(NS(=O)(=O)c1ccc2c(c1)OCCO2)C(=O)N(C)Cc1ccccc1F (stereo not drawn)	1
O=C(c1cc(COc2ccc3c(c2)CCCC3)on1)N1CCCC1	?
CC(C)(C)[C@@H]1COC(=O)[C@H](Cc2ccc(F)cc2)C/C=C\C[C@H](CC(=O)N(CCO)Cc2ccccc2)C(=O)N1	0
CCOc1ccccc1OCCC(=O)Nc1ccc2c(c1)OCO2	0
COCCNC(=O)C(c1ccc(O)cc1)N(Cc1ccccc1)C(=O)CCC(=O)Nc1nccs1 (stereo not drawn)	-2
C[C@@H]1CCC(=O)N(CC[C@H](Sc2ccc(Br)cc2)c2ccccc2)CC1	19
O=C(COC(=O)c1cccc(O)c1)Nc1ccc(S(=O)(=O)N2CCOCC2)cc1	-3
COc1ccc(OC)c(CN2CCN(C(=O)CNC(=O)c3cc(C)cc(C)c3)CC2)c1	0
Cc1nc(C)c(C(=O)OC(C)C(=O)Nc2ccc(F)cc2)s1 (stereo not drawn)	-1
Carrying on.
SMILES	Mtb bLac sens
COc1ccc(/C=C/C(=O)Nc2cccc(S(=O)(=O)NC3=NCCCCC3)c2)c(OC)c1	-1
CC1(c2ccc(OC(F)F)cc2)NC(=O)N(CC(=O)N2CCN(C(=O)c3ccco3)CC2)C1=O (stereo not drawn)	-4
COCCN(C(=O)CSc1cc(C)c2ccccc2n1)c1c(N)n(CC(C)C)c(=O)[nH]c1=O	6
CCN(CC)S(=O)(=O)c1cc(NC(=O)COC(=O)c2c(C)noc2C)ccc1C	-1
CCN(c1ccccc1)S(=O)(=O)c1ccc(Cl)c(NC(=O)c2ccc(=O)[nH]n2)c1	14
NC(=O)c1ccsc1NC(=O)COC(=O)c1ccccc1F	4
CCOC(=O)C1CCCN(C(=O)CSc2nnc3nc(C)cc(C)n23)C1 (stereo not drawn)	-8
CCn1c(SC(C)C(=O)Nc2ccc3c(c2)OCCO3)nnc1C1CC1 (stereo not drawn)	9
O=C(NCc1ccccc1Cl)c1cccc2c1C(=O)c1ccc(-c3ccc(OC(F)(F)F)cc3)cc1S2(=O)=O	5
O=S(=O)(c1ccc(SCc2ccccc2)nc1)N1CCCCC1	-2
Cc1ccc(-c2cc(C(=O)NNC(=O)c3csc(N4CCOCC4)n3)c3ccccc3n2)cc1	96
CCc1ccc([C@@H]2CC=C(C(=O)O)[C@H](c3ccc(C(C)(C)C)cc3)N2S(=O)(=O)c2ccc(C)cc2)cc1	3

4 compounds picked at random from the list so far:
SMILES	Mtb bLac sens
O=C(COC(=O)c1cc(Cl)nc(Cl)c1)Nc1ccc(Cl)c(S(=O)(=O)N2CCOCC2)c1	11
N#Cc1ccc(CN2CCN(C(=O)CCNS(=O)(=O)c3ccc(F)c(F)c3)CC2)cc1	-4
CC(C)(C)[C@@H]1COC(=O)[C@H](Cc2ccc(F)cc2)C/C=C\C[C@H](CC(=O)N(CCO)Cc2ccccc2)C(=O)N1	0
O=C(CCS(=O)(=O)c1ccccc1Cl)NC1CCCCCC1	2

An excerpt from above in order of molar mass, smallest number first:
SMILES	Mtb bLac sens
NC(=O)c1ccsc1NC(=O)COC(=O)c1ccccc1F	4
CCn1c(SC(C)C(=O)Nc2ccc3c(c2)OCCO3)nnc1C1CC1 (stereo not drawn)	9
CCN(c1ccccc1)S(=O)(=O)c1ccc(Cl)c(NC(=O)c2ccc(=O)[nH]n2)c1	14
CC1(c2ccc(OC(F)F)cc2)NC(=O)N(CC(=O)N2CCN(C(=O)c3ccco3)CC2)C1=O (stereo not drawn)	-4
CCc1ccc([C@@H]2CC=C(C(=O)O)[C@H](c3ccc(C(C)(C)C)cc3)N2S(=O)(=O)c2ccc(C)cc2)cc1	3

Returning to the listing, repeating the 7 entries before the break.
SMILES	Mtb bLac sens
NC(=O)c1ccsc1NC(=O)COC(=O)c1ccccc1F	4
CCOC(=O)C1CCCN(C(=O)CSc2nnc3nc(C)cc(C)n23)C1 (stereo not drawn)	-8
CCn1c(SC(C)C(=O)Nc2ccc3c(c2)OCCO3)nnc1C1CC1 (stereo not drawn)	9
O=C(NCc1ccccc1Cl)c1cccc2c1C(=O)c1ccc(-c3ccc(OC(F)(F)F)cc3)cc1S2(=O)=O	5
O=S(=O)(c1ccc(SCc2ccccc2)nc1)N1CCCCC1	-2
Cc1ccc(-c2cc(C(=O)NNC(=O)c3csc(N4CCOCC4)n3)c3ccccc3n2)cc1	96
CCc1ccc([C@@H]2CC=C(C(=O)O)[C@H](c3ccc(C(C)(C)C)cc3)N2S(=O)(=O)c2ccc(C)cc2)cc1	3
O=C(c1cccc(S(=O)(=O)N2CCOCC2)c1)N1CCC(Cc2ccccc2)CC1	1
CCN(C[C@H]1N[C@@](CC)(C(=O)OC)[C@H]2C(=O)N(Cc3ccccc3)C(=O)[C@@H]12)C(=O)C1CCCCC1	3
CC(Sc1nnnn1-c1ccccc1)C(=O)NC1CCCC1 (stereo not drawn)	0
O=C(NCCc1ccccc1)C(=O)c1c[nH]c2ccccc12	4
CCN(C(=O)CSc1nc2scc(-c3ccccc3)c2c(=O)n1C)C1CCS(=O)(=O)C1 (stereo not drawn)	2
CC(C)[C@H](N)c1cn([C@@H](CC(N)=O)C(=O)N2CCNCC2)nn1	-5
CCOc1ccc(C(=O)NCC(=O)NNC(=O)c2ccco2)cc1OCC	-2
O=C(NC1CCC(O)CC1)C1CCN(S(=O)(=O)c2c(Cl)cccc2Cl)CC1 (stereo not drawn)	0
O=C(NCC(F)(F)F)c1ccc(S(=O)(=O)Nc2ccccc2N2CCCC2)cc1	-10
COc1ccccc1NC(=O)COC(=O)C1CC2CCCC(C1)C2=O (stereo not drawn)	1
O=C(Cc1ccccc1)Nc1ccc(NC(=O)Cc2ccccc2)c(Cl)c1	1
COc1ccc(NC(=O)COC(=O)c2ccc(S(=O)(=O)N3CCCC3)cc2)cc1OC	5
Cc1ccc(S(=O)(=O)N2CCOCC2)cc1NC(=O)COC(=O)CCc1c[nH]c2ccccc12	89
O=C(Nc1ccc(Cl)c(S(=O)(=O)N2CCCCC2)c1)c1ccco1	0
COC(=O)[C@@H]1C[C@@H](C(=O)O)[C@H](C)C1(C)C	-13
CCOc1ccc(S(=O)(=O)N2CCCCC2)cc1NC(=O)c1cccnc1OCC	-1
Cc1ccc(/C=C/C(=O)OCC(=O)NC(=O)NCc2ccco2)cc1	-6
Cc1ccc(-c2noc(CCC(=O)NCc3ccccc3CN3CCOCC3)n2)cc1	4
CN(C(=S)NC(=O)C12CC3CC(CC(C3)C1)C2)c1ccc(O)cc1	80
CCN(C(=O)CSc1nc2ccccc2n1C)C1CCS(=O)(=O)C1 (stereo not drawn)	-9
O=C(C[C@@H]1C/C=C/CC[C@H](Cc2ccc(F)cc2)C(=O)OCCNC1=O)N[C@H](CO)Cc1ccccc1	-5
COC(=O)c1cc(CNC(=O)c2ccc(S(=O)(=O)N(C)c3ccccc3)cc2)ccc1OC	2
O=C(COC(=O)c1ccc(F)c(S(=O)(=O)N2CCOCC2)c1)NCc1ccc2c(c1)OCO2	-9
CCc1nc2ccc(C(=O)N(C)CC(=O)Nc3cccc(F)c3)cc2nc1CC	-8
CN(C(=O)CCc1nc2ccccc2c(=O)[nH]1)C1CCS(=O)(=O)C1 (stereo not drawn)	-3
CC(OC(=O)/C=C/c1ccco1)C(=O)NC1CCCCC1C (stereo not drawn)	7
O=C(NCCCN1CCOCC1)c1cc(-c2ccco2)nc2ccccc12	1
CN1C(=O)CC(c2ccccc2)C1=O (stereo not drawn)	99
Cc1ccc(NC(=O)CSCC(=O)N(C)Cc2ccc(Cl)c(Cl)c2)cc1	-2
CCN(CC)S(=O)(=O)c1ccc2[nH]c(=O)cc(C(=O)Nc3ccccc3N3CCOCC3)c2c1	6
Cc1nc2ccccc2n1C(C)c1ccccc1 (stereo not drawn)	-2
O=C(CSc1n[nH]c(=O)n1C1CC1)Nc1ccc(Cl)cc1Cl	-3
Cc1ccc(-c2cn(CCN)c(-c3ccc(Cl)nc3)n2)cc1	-8
COc1ccc(C(=O)NCc2ccc(C(=O)O)o2)cc1	-15
COC(=O)C(OC(=O)c1ccccc1)C(C)Br (stereo not drawn)	6
c1ccc(C[C@H]2CN=C(Nc3ccccc3)N2CCC2CCCC2)cc1	-2
O=C(O)c1cc([N+](=O)[O-])ccc1NCc1cccnc1	4
